Screens as filed in PubChem BioAssay.
NPYLR7 ag: activates Aedes aegypti NPYLR7 receptor; HEK293T NPYLR7/Galpha15, GCaMP6s calcium fluorescence; activation, % at 10 µM; hit rate 0.15% among 270,000; AID 1259423; in the data active = activation above about 40%;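 also: 0% = vehicle and 100% = reference agonist at the receptor; some compounds past the cut are filed as inactive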
NPYLR7 ag max-min: recorded beside NPYLR7 ag, whose call it bears; activation, %; measured here: Max-Min RFU normalised activation; some inactives read as strong as hits;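 span of the calcium signal over five minutes; 0% = vehicle and 100% = native peptide agonist; compound fluorescence can raise it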
Starred values were filed as active, the others as inactive; & = joins results of further samples. A portion of the library (hit frequency here may not be typical).

Molecule	NPYLR7 ag	NPYLR7 ag max-min
Cc1nc2ccc(C(=O)Nc3ccc(Cl)c(Cl)c3)cn2c1N(C)CC1CCCCC1	-8	-12
COc1ccc(-c2nnc(SCC(=O)N/N=C\c3cccc4ccccc34)n2-c2ccccc2)cc1OC	-4	-9
Cc1cc(OCc2nc(C(C)OCC(C)C)no2)nnc1C (stereo unspecified)	4	2
CCN(CCC#N)c1ccc(CNCC(c2ccco2)N(C)C)c(C)c1 (stereo unspecified)	5	3
CC(NC(=O)NC1CCSCC1)c1ccc(-n2cccn2)cc1 (stereo unspecified)	-30	-31
CC(C)CCN(Cc1ccc(F)cc1)Cc1cccn1Cc1ccc(C(F)(F)F)cc1	4	11
Cc1ccc(N2CCN(C(=O)CC3C(=O)NCCN3Cc3cccs3)CC2)c(C)c1 (stereo unspecified)	4	5
CCN(C(=O)CSc1ncc(S(=O)(=O)c2ccc(C)c(Cl)c2)c(=O)[nH]1)c1cccc(C)c1	5	3
CCOC(=O)N1CCC(NC(=O)c2cnn3c(C(F)(F)F)cc(-c4ccccc4)nc23)CC1	-8	1
COc1cccc(NC(=O)C2(C)CCN2C(=O)Cc2ccc(-c3ccccc3)cc2)c1 (stereo unspecified)	0	-2
COCCCN1C(=O)CC(CC(=O)N2CCC(c3ccc(F)cc3)C2)(c2ccccc2Cl)C1=O (stereo unspecified)	24	8
O=C(NC1CCc2ccccc21)c1cc(-c2ccc3c(c2)OCO3)nc2ccccc12 (stereo unspecified)	11	3
Cc1ccc(C23OC(=O)C(C)(C)C2OC(=O)C3(C)C)cc1 (stereo unspecified)	2	1
CNS(=O)(=O)c1ccc(-c2nccn2-c2ccccc2CCO)cc1	19	10
CN(Cc1cnc2c(-c3ccccc3)cnn2c1)Cc1cc(C(C)(C)C)n[nH]1	15	5
c1cc(OCC2CO2)ccc1OCC1CO1 (stereo unspecified)	-3	-4
CN(C)Cn1nc(-c2cccnc2)n(-c2ccc(SC(F)F)cc2)c1=S	-4	-11
COc1ccc(C(C)(C)C)cc1NC(=O)CSc1ccccn1	1	-2
CCCN(Cc1cccc(Cl)c1)C(=O)[C@@H](N)[C@@H](C)CC	-13	-14
FC(F)(F)c1cccc(CNCC2CC(c3ccc4c(c3)OCO4)=NO2)c1 (stereo unspecified)	-1	-7
C=CCOc1c(OC)ccc2c1CN(C(C)C)C(=O)CCN2CC(O)CCC (stereo unspecified)	-1	9
O=C(c1cnn(-c2ccccc2)c1)N1CCN(S(=O)(=O)c2ccc(F)c(Cl)c2)CC1	-2	-5
COc1cc(OC)cc(C(=O)N2CCN(Cc3cc(=O)c(OCc4ccc(-c5ccccc5C#N)cc4)co3)CC2)c1	21	15
COc1cc(C=NNc2nncc3ccccc23)cc(OC)c1OC	-12	-17
COC(=O)c1cccc(C(=O)N2CCCC(N3CCN(c4ccccc4OC)CC3)C2)c1 (stereo unspecified)	9	3
CNc1ncc(C(=O)N2CCCC(C(=O)c3ccc(Cl)cc3C)C2)cn1 (stereo unspecified)	-5	-13
C=CCCC(=O)N1[C@@H](c2ccccc2)[C@@H](C(=O)OCC)C[C@]12CCCCN(C)C2=O	-1	3
CCCCCc1nc2cc(C)cc(C)n2c1Nc1c(C)cccc1C	22	20
N#CC1(c2ccccc2)CCN(C(=S)NCC2CCCO2)CC1 (stereo unspecified)	-8	-15
Cc1nc(C(=O)O)nn1-c1ccccc1C(C)C	-6	-7
CCOC(=O)c1ccc(N=c2oc3cc(N(CC)CC)ccc3cc2C(N)=O)cc1	-6	-12
CN1CC2(CCCN(C(=O)Cc3ccccc3O)CC2)OC1=O (stereo unspecified)	0	-3
CCOc1ccc2c(c1)CN(C(=O)Nc1ccc3c(c1)CCC(=O)N3)CC2	-2	-2
CCOc1ccccc1CNC(=O)c1c(C)noc1-c1cccc(C(F)(F)F)c1	32	18
O=S(=O)(c1ccc2c(c1)N=Cc1c(Cl)cccc1O2)N1CCCCC1	-1	-3
COc1ccc(NC(=O)Nc2ccc(N3CCC(C)CC3)c(C(=O)NCc3ccccc3)c2)c(OC)c1	-1	11
CN1CCCCCC1=NS(=O)(=O)c1cccc(N)c1	7	5
CSc1ccc(Cn2c(C)c(C(=O)NCC(C)C)sc2=O)cc1	8	5
Cc1cccc(N2CC(c3nc4ccccc4n3CC(=O)N3CCCCCC3)CC2=O)c1 (stereo unspecified)	15	16
COc1ccc(CCN(C)S(=O)(=O)c2ccc(OC)c(N3CCN(S(=O)(=O)c4cccc(C(F)(F)F)c4)CC3)c2)cc1OC	27	14
CCCCNC(=O)c1nn(-c2ccc(C)cc2)c(=O)cc1OC	5	2
CNS(=O)(=O)c1cccc(C#N)c1	1	7
COc1ccc(C)cc1N1C(=O)CSC1c1ccc(NC(=O)c2ccccc2)cc1 (stereo unspecified)	-3	4
CCNc1nc(NCC)n2c(SCCOc3ccc(OCC)cc3)nnc2n1	0	4
CNC(=O)[C@@H]1C[C@@H](N)CN1C(=O)c1ccc2c(c1)CCO2	15	14
CCC(Nc1ccccc1)C(=O)N1CCN(c2ccccc2)CC1 (stereo unspecified)	3	0
COc1ccc(-n2nc(-c3ccco3)cc2C(=O)N2CCC(C(N)=O)CC2)cc1	-3	4
O=C(c1ccc(=O)n(CCOc2ccccc2)n1)N1CCSc2ccc(Cl)cc21	9	4
c1ccc2c(-c3nnc(SCc4cscn4)n3C3CC3)c[nH]c2c1	1	1
CCOc1ccc(Cl)cc1S(=O)(=O)N1CCN(CCO)CC1	4	-1

Later entries
Molecule	NPYLR7 ag	NPYLR7 ag max-min
CCC(C(=O)N1CCN(C(c2ccc(Cl)cc2)c2ccc(Cl)cc2)CC1)c1ccccc1 (stereo unspecified)	27	18
O=C(Cn1nc2c(N3CCOCC3)nccn2c1=O)NC1CCCC1	4	0
CC12C=CC(O1)C1C(=O)N(c3ccc(N4CCOCC4)cc3)C(=O)C12 (stereo unspecified)	5&19	5&13
CCOc1ccc(-n2c(=O)[nH]c3c(C(N)=O)ncnc32)cc1	-4	-6
O[C@@H]1C[C@H]2CN(CCOc3ccc(Cl)cc3)C[C@H]2C[C@@H]1O	22	17
CC(=O)N1CCCN(C(=O)Cc2cccs2)c2ccccc21	1	0
CCOC(=O)C(N=O)=C(O)c1ccccc1	-9	-14
COCCNC(=O)c1ccc(CSc2nnc(-c3ccccc3Cl)n2-c2ccccc2F)cc1	17	18
CC1=NN(c2ccccc2)C(=O)/C1=C\c1ccc(-c2ccc3c(c2)C(=O)NC3=O)o1	-2	-10
Cn1nc(C(=O)Nc2ccc3c(c2)CCC3)c2ccccc2c1=O	6	3
CC1(C(=O)NCc2cccc3ccccc23)CCN1C(=O)C1(c2ccccc2)CCCC1 (stereo unspecified)	18	22
COC(=O)c1cccc(NCN2C(=O)c3ccc(Br)cc3C2=O)c1	0	-2
COc1ccc(S(=O)(=O)NCCc2nnc3ccc(SCC(=O)N4CCCC4)nn23)cc1	-8	-12
COc1ccc(CN(Cc2ncc(Cl)n2C)C2CCS(=O)(=O)C2)cc1 (stereo unspecified)	0	-2
CCOc1cccc(-c2cc(N)ccn2)c1	8	4
Cc1cc(C)n(-c2ccc(C(=O)Nc3cccc4c3CCCC4)cc2)n1	-17	-28
O=[N+]([O-])c1ccccc1SN(Sc1ccccc1[N+](=O)[O-])c1nccs1	8	6
O=C1NC2(CCCC2)C(=O)N1CCS(=O)(=O)Oc1ccccc1Br	3	0
O=S1(=O)N(c2ccccc2)C[C@H](O)[C@]12CCN(Cc1cccc(Cl)c1)C2	0	4
O=C1CC2(CCCC2)C(=O)N1CN1CCN(S(=O)(=O)c2ccc(F)cc2)CC1	13	13

Quoted from the listing:
`CNS(=O)(=O)c1cccc(C#N)c1` | NPYLR7 ag: 1
`O=C(c1ccc(=O)n(CCOc2ccccc2)n1)N1CCSc2ccc(Cl)cc21` | NPYLR7 ag max-min: 4

More entries follow:
Molecule	NPYLR7 ag	NPYLR7 ag max-min
CCN(CC)S(=O)(=O)c1ccc(Cl)c(C(=O)Nc2ccc(C(C)=O)cc2)c1	-4	-10
COCCCN(C)CCNC(=O)C(C)(C)c1ccc(C)cc1	3	1
CCc1cnc(C)nc1N1CCN(Cc2ccc3c(c2)OCO3)C(=O)C1	12	3
Cc1noc(-c2cccc(F)c2)c1C(=O)NCc1ccsc1	1	1
CC(C)NC(=O)CSc1nc(-c2ccccc2F)nc2c1c(=O)n(C)c(=O)n2C	-9	-13
FC(F)(F)c1cccc(CCC2CCCN(Cc3ccncc3)C2)c1 (stereo unspecified)	2	2
COc1cccc(C2c3[nH]c4ccccc4c3CCN2C(=O)c2cccnc2C)c1OC (stereo unspecified)	1	-5
Cc1csc(-c2nonc2NC(=O)c2ccc(C(F)(F)F)cc2)n1	13	6
CC1(C)CC(=O)C2=C(C1)OC(=N)C(C#N)C2C1CCCCC1 (stereo unspecified)	0	-2
Cc1nc(CC(=O)N2Cc3ccccc3CC2C(N)=O)cs1 (stereo unspecified)	-25	-26
CCOc1cc(CN2CCCn3cccc3C2c2cccc(C(F)(F)F)c2)ccc1O (stereo unspecified)	18	23
O=C(CC(NCCCN1CCOCC1)C(=O)O)Nc1ccc2ccccc2c1 (stereo unspecified)	18	9
COC(=O)c1cc2n(n1)CCCN(C1CCN(C(=O)c3ccccc3)CC1)C2	24	10
c1ccc(Cc2nc(CCc3cccnc3)n[nH]2)cc1	1	1
Cn1ncc2c(N3CCN(C(=O)N4CCOCC4)CC3)nc(C(C)(C)C)nc21	-4	-14
COCCOCC(=O)N1CCOC(c2ccc(Cl)c(Cl)c2)C1 (stereo unspecified)	20	6
C=CCNc1nnc(SCC(=O)c2c(N)n(CC(C)C)c(=O)n(C)c2=O)s1	-2	-1
CCCc1cc(CN(C)C(=O)c2c(C)cc(C)[nH]c2=O)[nH]n1	2	-3
CCOC(=O)N1CCN(C(c2ccc(F)cc2)C2Sc3nc(C)nn3C2=O)CC1 (stereo unspecified)	-2	-3
COc1ccc(C2c3ccsc3CCN2CC(=O)N2CCN(C(=O)Cc3cccs3)C(C)C2)cc1 (stereo unspecified)	5	-7
CCOc1ccccc1C(=O)N1CC(=O)N(CCOC)CC(O)C1 (stereo unspecified)	24	28
Cc1sc(NC(=O)c2ccco2)c(C(c2cccnc2)N2CCN(CCO)CC2)c1C (stereo unspecified)	7	6
O=[N+]([O-])c1ccc2c3c(ccc([N+](=O)[O-])c13)CC2	5	2
Cc1ccc(C(C)C)c(OCc2ccc(C(=O)N/N=C3\CCCC(=O)C3)cc2)c1	0	-2
O=C(Nc1nnc(SCCCOc2ccccc2)s1)c1ccccc1F	-1	-1
CC(Cc1cccnc1)n1ccnc1-c1cccnc1 (stereo unspecified)	5	0
CC(C)(C)C(=O)COC(=O)Cc1ccc(Br)cc1	1	-1
COc1ccc(Cn2nccc2NC(=O)c2cccc(F)c2)c(OC)c1	2	11
CCCCOc1ccc(C(=O)N(CC(=O)N(CCc2c[nH]c3ccccc23)Cc2ccc(F)cc2)CC(C)C)cc1	13	10
COc1ccc(NC(=O)CNC(=O)CN(CC(C)C)C(=O)c2cccc(OC)c2)cc1	17	21
NCCCC[C@H](N[C@@H](CCc1ccccc1)C(=O)O)C(=O)N1CCC[C@H]1C(=O)O	-8&1	-13&-4
CC(Cl)C(=O)N1CCC2(CC1)SCCN2C(=O)c1ccccc1 (stereo unspecified)	18	20
Oc1ccc(C2=Nn3c(nnc3-c3ccccc3Cl)SC2)cc1O	1	-1
CC(C)NC(=O)Cn1nnc(-c2ccccc2Cl)n1	4	7
COc1ccc(C)cc1N1CCN(Cc2ccccc2F)C(C)C1=O (stereo unspecified)	2	4
COc1cccc(CNC(=O)C2CCN(C(=O)[C@@H](Cc3ccccc3)NC(=O)Nc3cc(C(F)(F)F)ccc3Cl)CC2)c1	3	-2
CCCCCOc1ccc(C(=O)NCCc2cccc(Cl)c2)cc1OCCCCC	-5	-13
Cc1cccc(N(C)CC(=O)Nc2nccs2)c1C	-24&-6	-25&-7
COCCn1c(C)cc(C(=O)CSc2nnc3cc(C)c4ccccc4n23)c1C	-6	-12
COc1ccc2nc(-n3nc(C)cc3NC(=O)COc3ccccc3)sc2c1	-10	-15
O=C(Cn1nnnc1CN1CCCC1)NCCc1ccccc1Cl	-1&-2	-6&-2
COc1ccc(S(=O)(=O)Nc2cc(C(=O)N3CCC(C)CC3)ccc2N2CC3CC(C2)c2cccc(=O)n2C3)cc1 (stereo unspecified)	9	8
O=C(CSc1nnc(-c2ccc(Br)cc2)o1)NC(=O)Nc1ccc2c(c1)OCCO2	13	9

Single records, from the list above. Screens in order: NPYLR7 ag	NPYLR7 ag max-min
Cc1cccc(N(C)CC(=O)Nc2nccs2)c1C in the list: -24&-6	-25&-7
O=C(Cn1nnnc1CN1CCCC1)NCCc1ccccc1Cl in the list: -1&-2	-6&-2

Reprinted at random: 4 entries already listed
Molecule	NPYLR7 ag	NPYLR7 ag max-min
O=[N+]([O-])c1ccc2c3c(ccc([N+](=O)[O-])c13)CC2	5	2
FC(F)(F)c1cccc(CCC2CCCN(Cc3ccncc3)C2)c1 (stereo unspecified)	2	2
O=C(CSc1nnc(-c2ccc(Br)cc2)o1)NC(=O)Nc1ccc2c(c1)OCCO2	13	9
CCc1cnc(C)nc1N1CCN(Cc2ccc3c(c2)OCO3)C(=O)C1	12	3
